AID504770: growth inhibitors of E. coli YBA685 in a screen for V. cholerae RctB (chromosome II replication) inhibitors; E. coli YBA685 rctB-dependent plasmid, OD600 growth, 3 h; active compounds read low; z-score (no concentration beside the values); 0.27% of 130,000 active; AID 504770;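 active means z-score under -2 on both plates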;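 further: wells of about 30 µL received 100 nL stock; score is relative to mean and SD of the test wells; the first replicate is given; strong numbers were not always called active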
Ba CapD inh: CapD enzyme inhibition | purified CapD enzyme, fluorescence intensity read-out; active compounds read low; some hits fall short of the stated cut | 0.23% of 140,000 active | z-score (no concentration beside the values) | AID 492967;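 active means z-score under -4 in either of two replicates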;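 further: stock transfer was 100 nL into about 40 µL; score is relative to mean and spread of the plate; one replicate is shown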
* = called active by the depositor; nt = not tested or not shown; & = joins results of further samples. No enrichment for hits; overall some 0.39% were active at least once.

Values run as follows: AID504770, Ba CapD inh
1. CCOC(=O)c1c(NC(=O)COC(=O)Cc2cn3ccsc3n2)sc(C)c1Cc1ccc2c(c1)OCO2
  -0.05, nt
2. O=C(NCc1cccs1)c1cc2cccc3c2n1CCS3
  0.95, 68
3. O=C(Oc1ccc(C2Oc3ccccc3C3CC(c4cccc5ccccc45)=NN32)cc1)c1ccccc1 (stereo not given)
  nt, 0.51
4. O=C(COC(=O)C1=COCCO1)Nc1ccc2[nH]c(=O)[nH]c2c1
  0.75, nt
5. COc1ccc(-c2cc(C(F)(F)F)n3nc(C(=O)NCCN4CCOCC4)c(Cl)c3n2)cc1
  nt, 0.42
6. O=C(O)C1C2CC=CC2c2cc(Cl)cc3c2N1CC1CC=CC31 (stereo not given)
  0.05, 1.2
7. CC(=O)N[C@H]1[C@H](Oc2ccc3ccccc3c2)O[C@H](CO)[C@@H](O)[C@@H]1O
  nt, 0.43
8. CCCn1cnc2cc(NCc3cccs3)ccc21
  0.3, -3.2
9. CC1CN(Cn2nc(C(=O)O)c3ccccc32)CC(C)O1 (stereo not given)
  -0.75, nt
10. COc1ccc(CN2CCc3c([nH]c4ccccc34)C2)cc1
  -0.5, -0.28
11. CN(C)C1(CNC(=O)C2=NN(C3CCS(=O)(=O)C3)C(=O)CC2)CCCCC1 (stereo not given)
  -0.55, nt
12. COC(=O)c1ccncc1C(=O)Nc1ccc(C)cc1
  nt, -0.3
13. O=[N+]([O-])c1cc(C(F)(F)F)ccc1N1CCN(c2ccc(C(F)(F)F)cc2[N+](=O)[O-])CC1
  nt, -0.21
14. CC(=O)NC(=C(C)C)c1ccccc1
  1.9, -0.36
15. CCN(C(=O)CCn1c(=O)oc2ccccc21)c1ccccc1C
  0.4, nt
16. CC(=O)Nc1ccccc1C(=O)c1n[nH]nc1-c1ccc(Cl)cc1
  -0.85, -1.5
17. CCC(CO)NCC(O)CN1c2ccccc2Sc2ccccc21 (stereo not given)
  0.4&-0.2, 0.22&0.055
18. O=S(=O)(c1ccc(O)cc1)N1CCOCC1
  -0.55, nt
19. CCN(CC)C(=O)CSc1c2c(nc3ccc(Cl)cc13)CCCC2
  -0.4, 0.56
20. CC(C)OC(=O)Cn1c(=O)oc2ccccc21
  -1.2, -0.16
21. Cc1ccccc1Nc1cc(C)c(C#N)c2nc3ccccc3n12
  1.1, 3.7
22. CCOc1cc(/C=C2/C(=O)N(c3ccc(Cl)c(Cl)c3)N=C2C)ccc1OC(C)=O
  nt, 0.54
23. CCC1CCC(C(=O)NC(C(=O)Nc2ccc(OC)cc2)C(C)C)CC1 (stereo not given)
  -1.1, -0.33
24. COC(=O)c1ccc(OCC2c3cc(OC)c(OC)cc3CCN2C(=O)c2ccccc2)cc1 (stereo not given)
  -0.35, -0.28
25. CCCCCCC1(C)NC(=S)N(c2ccc(C)cc2)N1 (stereo not given)
  nt, -0.29
26. S=c1nn[nH]n1CC1CCCO1 (stereo not given)
  -0.65, nt
27. COCCNC(=O)C1Sc2nnc(C)n2NC1c1ccc(OC)c(Cl)c1 (stereo not given)
  2.2, -0.68
28. NNC(=O)c1oc2nc(-c3ccccc3)cc(-c3ccccc3)c2c1N
  1.3, -0.58
29. Cn1cc(Cl)c(-c2noc(-c3ccccc3C(F)(F)F)n2)n1
  -0.4, 4
30. N#C/C(=C\Nc1ccc2c(c1)OCCO2)S(=O)(=O)c1ccc(C(F)(F)F)cn1
  nt, -0.78

Going on with the list.
Values run as follows: AID504770, Ba CapD inh
31. Cc1cc(C)c(C2=NON3N(C(=O)c4ccccc4Cl)c4ccccc4N23)c(C)c1
  nt, -0.2
32. COc1ccc(OC)c(C2C(N3C(=O)c4c(Cl)c(Cl)c(Cl)c(Cl)c4C3=O)C(=O)N2c2cc(Cl)cc(Cl)c2)c1 (stereo not given)
  nt, -0.49
33. CCSc1nc(Sc2ccccc2)c2sc3nc(C)cc(C)c3c2n1
  nt, 0.46
34. N#Cc1cn(CC(=O)Nc2ccc(Br)cc2)c2ccccc12
  -0.45, 0.14
35. Cc1nc(SC(C)C(=O)NC2CC2)n(C2CCCC2)c1C (stereo not given)
  1.1, nt
36. O=C(OCC1(c2ccc(Cl)cc2)CC1)N1CCN(c2ccccc2F)CC1
  nt, -0.03
37. Cc1ccc(COc2ccc3c(c2)OCO3)cc1
  -0.65, nt
38. CC(C)(C)c1ccc(C(=O)/C=C2\NC(=O)CS2)cc1
  1.9, -0.8
39. CC1CCc2c(nc3nc[nH]n3c2=O)C1 (stereo not given)
  -0.2, nt
40. CN(C)c1nc2ncnc(N)c2[nH]1
  -0.8, 0.65
41. O=C1C2C(C(=O)N1CCO)C1C=CC2C12CC2 (stereo not given)
  -0.55, nt
42. c1ccc2c(c1)nc(N1CCOCC1)c1ccccc12
  0.25, nt
43. O=C(CN1CCSc2ccccc21)Nc1ccc2c(c1)OCCO2
  -0.85, nt
44. CC(=O)Nc1ccc(S(=O)(=O)N(C2CC2)C2CCN(C(C)=O)CC2)cc1
  nt, -0.12
45. FC(F)(F)c1ccc(-c2nnc(-c3ccc4nsnc4c3)o2)cc1
  1.6, 0.24
46. Cc1ccc(-n2ncc3c(=S)nc[nH]c32)cc1
  -1, -0.64
47. O=C(O)C(O)(c1ccc(Br)cc1)c1ccc(Br)cc1
  0.3, 0.65
48. N#CC(C#N)=C1C=CN(c2ccc(Br)cc2)C=C1
  0.35, nt
49. O=C1CC(NC(=O)N2CCn3cccc3C2c2ccccc2F)CN1c1ccccc1 (stereo not given)
  -1.2, nt
50. COC(=O)C(NC(=O)Nc1ccccc1)C(C)C (stereo not given)
  -0.9, -0.01
51. Cc1ccc(C2C3=C(CC(C)(C)CC3=O)Nc3ccc4ccccc4c32)cc1 (stereo not given)
  nt, 41
52. Cc1cc(N2C(=O)c3ccccc3C2=O)no1
  -0.05, nt
53. Cc1nc(/C(N)=N/O)c(C(F)(F)F)o1
  0.5, 0.74
54. N#CC(c1ccc(Cl)cc1)c1ncc(C(F)(F)F)cc1Cl (stereo not given)
  -0.65, -0.38
55. O=C(NCCC1=CCCCC1)c1ccc(Cl)cc1
  -0.9, 0.64
56. COC(=O)C1=NN(c2c(C)cccc2Cl)C(=O)C1
  -0.9, -0.1
57. N#CCCn1cc(C(=O)CN2C(=O)NC(c3ccccc3)(c3ccccc3)C2=O)c2ccccc21
  0.1, nt
58. CC1CCC2C(C)C(=O)OC3OC4(C)CCC1C32OO4 (stereo not given)
  -0.7, 0.11
59. CC(C)n1nc(C(=O)OCc2cc(=O)n3c4c(sc3n2)CCCC4)c2ccccc2c1=O
  0.05, nt
60. COc1ccc(N2CCN(c3ncnc4c3cnn4-c3cccc(C)c3)CC2)cc1
  nt, -0.21

(next part)
Values run as follows: AID504770, Ba CapD inh
61. CCOC(=O)c1oc2c(CN3CCN(C)CC3)c(O)ccc2c(=O)c1-c1ccc(OC)c(OC)c1
  -0.05, -2.2
62. Cc1cc(C)c(C#N)c(=N)o1
  0.1, nt
63. N#Cc1cc(-c2cccc(C(F)(F)F)c2)cnc1Oc1ccc(F)cc1F
  nt, 0.71
64. O=C(NC(=O)C(F)(F)F)NC1(C(F)(F)F)OCCO1
  -0.35, nt
65. CCOc1cc(C(=O)CCC(=O)NCc2ccco2)ccc1O
  0.9, nt
66. O=C1/C(=C/c2ccc(-c3cc(Cl)ccc3Cl)o2)NC(=S)N1c1ccccc1
  nt, -0.84
67. O=C(CN1C(=O)CCC1=O)Nc1nc2ccccc2s1
  0.25, nt
68. N#CC(c1ccccc1)c1cccc(Cl)n1 (stereo not given)
  -0.5, 0.06
69. COc1ccc(-c2c(C#N)c(N)nc3sc(C(=O)OCc4ccccc4)c(N)c23)cc1OC
  nt, -0.46
70. CCC(Cc1ccccc1)NC(=O)c1ccco1 (stereo not given)
  -1, -0.075
71. COC(=O)CSc1nc(-c2ccccc2)nc2c1Cc1cc(Br)ccc1O2
  -0.55, 0
72. CCOC(=O)N1CCN(C(=O)Cc2cccs2)CC1
  -0.25, nt
73. CCN(Cc1ccccc1)C(=O)c1oc(=O)c2ccccc2c1-c1ccc(C)cc1
  0.85, 50
74. O=S(=O)(c1ccccc1)c1ccc2c(c1)Sc1ccccc1N2
  0.95, nt
75. N#Cc1ccc2c(c1)nc1c3cccc4cccc(c(=O)n21)c43
  -0.25, nt
76. CC(Oc1ccc(Cl)cc1)c1ccc(C#N)c(=O)[nH]1 (stereo not given)
  -0.7, 73
77. OCc1cn(CC(O)COc2ccccc2Cl)c2ccccc12 (stereo not given)
  -0.2, nt
78. N#CCc1cccc(CC#N)c1
  nt, 0.45
79. COC(=O)CSc1nnc2[nH]c(=O)cc(C)n12
  0.45, nt
80. CC1=C(C(=O)OCC(C)C)C(c2cc3c(cc2[N+](=O)[O-])OCO3)C2=C(CC(c3ccccc3)CC2=O)N1 (stereo not given)
  nt, 0.35
81. Cc1ccc(NC(=O)COc2ncnc3ccccc23)cc1C
  -1.5, -1.2
82. COc1ccc2c(C)nc(/N=C(/N)NC(=O)c3ccccc3)nc2c1
  -0.25, 26
83. CCOC(=O)Nc1oc2ccccc2c(=O)c1CN1CCOCC1
  -0.8, -0.28
84. O=C(O)C(Sc1ncccn1)c1ccccc1 (stereo not given)
  -0.4, -0.53
85. S=C(N/N=C/c1ccccc1Cl)NC1CC2CCC1C2 (stereo not given)
  nt, 0.035
86. CCNC(=O)C1CCCc2c1[nH]c1ccc(Cl)cc21 (stereo not given)
  -0.65, 0.71
87. COc1cc(OC)c(OC)cc1/C=N/NC(=O)c1ccccc1Oc1ccccc1
  nt, 48
88. CSc1ccc([N+](=O)[O-])cc1-c1ccn[nH]1
  nt, -2.1
89. Cc1cc(-n2c(C)cc(/C=C/C(=O)N3CCN(Cc4cccs4)CC3)c2C)no1
  0.25, nt
90. CC(C)(C)c1ccc(C(=O)N2CCC(C(=O)NN)CC2)cc1
  0.3, 11

(listing goes on)
Values run as follows: AID504770, Ba CapD inh
91. COC(=O)CN1C(=O)COc2ccc(Cl)cc21
  -0.35, 0.61
92. O=C(NCc1ccco1)C1CCN(c2nc3ccccc3n2Cc2ccccc2F)CC1
  -0.75, 0.39
93. CCC(CO)NCC(O)Cn1c2ccccc2c2ccccc21 (stereo not given)
  -0.6, 17
94. Cc1[nH]c2ccccc2c1C(=O)COC(=O)c1ccncc1
  0.6, nt
95. c1cncc(CNc2nc3ccccc3n3cnnc23)c1
  -0.75, 0.36
96. CCOC(=O)c1c(C)c(-c2ccccc2)n(CC(=O)NC2CCCC2)c1C
  0.3, -0.17
97. CC1CCCCN1C(=O)c1cc(=O)c2ccccc2o1 (stereo not given)
  0.15, nt
98. CCCC(=O)C1=C(N2CCN(C3=C(C(=O)CCC)C(=O)CC(C)(C)C3)CC2)CC(C)(C)CC1=O
  -0.25, nt
99. CCCCCNc1ncnc2c1sc1nc(CCC)c3c(c12)CC(C)(C)OC3
  nt, 2.4
100. CC1(C)CC2(CC(C)(C)N1)OC(=O)N(Cc1ccccn1)C2(C)O (stereo not given)
  -2.4, -0.02
101. COC(=O)C1(c2ccccc2)NC(c2ccccc2C)C2C(=O)N(C)C(=O)C21 (stereo not given)
  -0.35, nt
102. CO/N=C/NC(=O)C(c1ccccc1)c1ncc(C(F)(F)F)cc1Cl (stereo not given)
  nt, 0.17
103. Cc1[nH]nc2c1C1(C(=O)Nc3ccc([N+](=O)[O-])cc31)C(C#N)=C(N)O2 (stereo not given)
  nt, -1.5
104. Cc1cc([N+](=O)[O-])ccc1S(=O)(=O)N1c2cccc3cccc(c23)S1(=O)=O
  nt, -0.14
105. CCCc1cnc(N2CCCNCC2)nc1
  nt, 20
106. CCN(CC)c1ccc(N2C(=O)/C(=C/c3ccc(Cl)cc3)C=C2c2ccccc2)cc1
  nt, -0.34
107. CC1CN(C(=O)c2ccc(-n3cc(-c4ccncn4)cn3)cc2)CC(C)O1 (stereo not given)
  nt, 8.3
108. NC(N)=NC(N)=Nc1cccc(F)c1
  nt, -0.41
109. Cc1ccc2nc(-c3ccc(NC(=O)c4cccc([N+](=O)[O-])c4)cc3)sc2c1
  nt, 5.2
110. c1ccc(-c2nc(COc3ncnc4sccc34)cs2)cc1
  0.2, nt
111. O=C(OCc1ccc([N+](=O)[O-])cc1)C1CCCN1C(=O)OCc1ccncc1 (stereo not given)
  nt, 0.47
112. CN(C)c1ccc(/C=C2\SC(=O)N(Cc3ccccc3)C2=O)cc1
  0.2, -0.04
113. CC(=O)Oc1ccccc1C(=O)OCC(=O)c1ccc(OCc2ccccc2)cc1
  1.2, 0.035
114. CSc1ncc(Cl)c(C(=O)Nc2sc3c(c2C(=O)NCc2ccco2)CCCC3)n1
  0.05, 1.2
115. Cc1nnc(SCc2cc(=O)oc3cc(O)ccc23)s1
  -1, nt
116. N#C/C(=C\c1cn(Cc2ccccc2)c2ccccc12)C(=O)Nc1ccccc1O
  0.4, -0.47

Structures listed so far with an aryl thioether with sulfur outside any ring (nine):
Values run as follows: AID504770, Ba CapD inh
19. CCN(CC)C(=O)CSc1c2c(nc3ccc(Cl)cc13)CCCC2
  -0.4, 0.56
33. CCSc1nc(Sc2ccccc2)c2sc3nc(C)cc(C)c3c2n1
  nt, 0.46
35. Cc1nc(SC(C)C(=O)NC2CC2)n(C2CCCC2)c1C (stereo not given)
  1.1, nt
71. COC(=O)CSc1nc(-c2ccccc2)nc2c1Cc1cc(Br)ccc1O2
  -0.55, 0
79. COC(=O)CSc1nnc2[nH]c(=O)cc(C)n12
  0.45, nt
84. O=C(O)C(Sc1ncccn1)c1ccccc1 (stereo not given)
  -0.4, -0.53
88. CSc1ccc([N+](=O)[O-])cc1-c1ccn[nH]1
  nt, -2.1
114. CSc1ncc(Cl)c(C(=O)Nc2sc3c(c2C(=O)NCc2ccco2)CCCC3)n1
  0.05, 1.2
115. Cc1nnc(SCc2cc(=O)oc3cc(O)ccc23)s1
  -1, nt
